# High-throughput results deposited in PubChem BioAssay by ICCB-Longwood Screening Facility, Harvard Medical School.
# MenB inh: blocks the Mycobacterium tuberculosis MenB enzyme; P9WNP5; inhibition, %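 (about 12 µg/mL by stock and volumes)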; MenB enzyme assay, absorbance read-out; some hits fall short of the stated cut; hit rate 0.43% among 100,000;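 active = mean of two replicates above 30%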;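 also: 0% = no compound and 100% = wells with inactive enzyme; the first replicate is given; strong numbers were not always called active; inactives centre near -10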
# Polio RdRp inh: inhibitors of poliovirus RNA polymerase binding and polymerization; % elongation, % (compound at 16.7 µg/mL); hit rate 0.66% among 150,000; poliovirus polymerase elongation, fluorescence polarization; active compounds read low; P03300; AID 588519; in the data active = % elongation below about 90%; also: some results filed as inactive read as strong as hits
# Target sequence (P03300 1749-2209 limits assumed): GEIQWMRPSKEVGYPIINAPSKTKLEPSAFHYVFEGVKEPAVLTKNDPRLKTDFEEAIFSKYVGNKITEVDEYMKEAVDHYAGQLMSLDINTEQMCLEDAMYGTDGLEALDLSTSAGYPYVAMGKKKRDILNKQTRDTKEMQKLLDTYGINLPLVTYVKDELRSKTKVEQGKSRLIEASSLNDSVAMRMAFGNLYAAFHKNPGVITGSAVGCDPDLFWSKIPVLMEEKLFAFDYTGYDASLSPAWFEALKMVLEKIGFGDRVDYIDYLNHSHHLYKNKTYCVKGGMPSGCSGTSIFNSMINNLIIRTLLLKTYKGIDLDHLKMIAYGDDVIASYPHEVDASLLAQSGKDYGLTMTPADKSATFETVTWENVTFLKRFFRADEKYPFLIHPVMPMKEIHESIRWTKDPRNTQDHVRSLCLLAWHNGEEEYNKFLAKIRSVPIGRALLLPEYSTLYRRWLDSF
# MbtI inh: inhibitors of Mycobacterium tuberculosis siderophore enzyme MbtI | P9WFX0 | purified MbtI enzyme, fluorescence intensity read-out | inhibition, %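 (about 17 µg/mL by stock and volumes)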 | hit rate 0.89% among 100,000 | AID 493033;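 active = above 50% in both replicates, above 80% if mildly self-fluorescent; inactive = the rest, strongly fluorescent compounds included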;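 also: 0% = mean of negative and 100% = mean of positive controls; one replicate is shown; some compounds called inactive have numbers as strong as hits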
# Target sequence (P9WFX0 whole entry, looked up): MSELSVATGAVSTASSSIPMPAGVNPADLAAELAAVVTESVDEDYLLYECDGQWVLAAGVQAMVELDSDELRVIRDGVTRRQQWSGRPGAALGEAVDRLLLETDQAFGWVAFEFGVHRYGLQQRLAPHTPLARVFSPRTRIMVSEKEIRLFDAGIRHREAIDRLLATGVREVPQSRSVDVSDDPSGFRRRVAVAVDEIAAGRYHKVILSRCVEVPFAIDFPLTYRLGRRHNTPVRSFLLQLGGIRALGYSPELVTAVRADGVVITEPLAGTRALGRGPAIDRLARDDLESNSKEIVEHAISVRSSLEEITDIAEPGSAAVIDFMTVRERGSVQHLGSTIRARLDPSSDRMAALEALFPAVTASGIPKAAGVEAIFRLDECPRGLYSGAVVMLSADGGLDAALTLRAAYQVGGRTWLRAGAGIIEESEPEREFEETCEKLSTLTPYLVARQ
# Polio RdRp inh intensity: recorded beside Polio RdRp inh, whose call it bears; % elongation; measured here: total intensity read-out; formula for this scale not given here;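 total fluorescence in place of polarization; lower means less elongation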
# * marks the source's active call; other numbers are inactive results; · = not tested or not shown; & = joins results of further samples.
# Fields – MenB inh | Polio RdRp inh | Polio RdRp inh intensity | MbtI inh
O=C(c1ncoc1-c1ccc2ccccc2c1)N1CCN(c2ccccc2)CC1
  -10 | 101 | 100 | -1
[O-][n+]1c2c(nn1-c1ccccc1Cl)-c1nonc1CC2
  -6 | 105 | 105 | ·
O=C(Nc1cccc(Cl)c1)/C(=C\c1cccnc1)NC(=O)c1cccs1
  · | 103 | 109 | -13
COc1ccc(C2CNC(=O)C2)cc1 (stereo unspecified)
  3 | 103 | 106 | -12
COc1ccc(N2C(=O)CC(C(C)c3ccccc3)C2=O)cc1 (stereo unspecified)
  15 | 102 | 102 | -2
COc1cccc(Oc2ccc(C(F)(F)F)cc2Nc2nc3ccccc3o2)c1
  -109 | 81* | 84* | -36
O=S(=O)(c1cccc2c(I)cccc12)N1CCCNCC1
  -7 | 103&101 | 101&99 | -5
S=c1[nH]nc(-c2ccncc2)n1/N=C/c1cccnc1
  0&-25 | 108&100 | 113&101 | -9&-7
CC1(C)CNC(=O)CC(C)(C)N1
  -4 | 101 | 101 | -11
COc1cccc(/C=C(/C(=O)O)c2ccccc2)c1
  · | 101 | 107 | -5
CCOC(=O)c1ccc(Oc2nc(NC(C)C)nc(NC(C)(C)C)n2)cc1
  -26 | 98 | 101 | -8
O=C(C1=C2SC=C(c3ccccc3)N2CCCC1)c1cccs1
  -136 | 98 | 102 | -4
COc1ccc(/C=C/C(=O)Nc2nc3ccc(S(C)(=O)=O)cc3s2)cc1Br
  -11 | 103 | 107 | 13
Cc1cc(=O)n(Cc2ccncc2)c2c1c(C)nn2C
  11 | 98 | 96 | 36
CCn1c(CN(CCO)CCO)nc2ccccc21
  -51 | 103 | 102 | 0
Cc1cn(CC(C)C)c(=O)n(CC(C)C)c1=O
  -24 | 99 | 100 | 4
Nc1cccc(S(=O)(=O)c2cccc(N)c2)c1
  0 | 100 | 100 | -6
CC(C)OP(C)(=O)C(N)=O (stereo unspecified)
  1 | 101 | 101 | -7
CCn1c(O)c(C=Nc2ccccc2)oc1=S
  -27 | 102 | 104 | -2
CC1CC(C)(C)CC2(C1)NC(=S)N(c1nc3ccccc3s1)N2 (stereo unspecified)
  -1 | 102 | 104 | 3
COc1ccc(/C=N/c2oc(C)c(C)c2C#N)c(OC)c1
  -1 | 110 | 112 | ·
O=C1CCCN2C(=N1)SC(=S)N2CN1CCN(Cc2ccccc2)CC1
  -29 | 101 | 102 | 21
O=C(C1CCC(CNS(=O)(=O)c2cccc3nsnc23)CC1)N1CCc2ccccc21 (stereo unspecified)
  1 | 100 | 103 | -7
Cc1ccc(NCC(F)(F)C(F)F)cc1
  11 | 100 | 102 | 8
Cc1cc(N=Cc2c(O)n(-c3ccc4c(c3)OCO4)c(=O)c3ccccc23)ccn1
  -32 | 98 | 102 | -3
Cn1c(N)c(S(=O)(=O)N2CCc3ccccc3C2)c(=O)n(C)c1=O
  4 | 103 | 104 | 14
Cc1ccc(CCNC(=O)Cn2c(=O)oc3cc(S(=O)(=O)NC4CCCC4)ccc32)cc1
  -14 | 103 | 103 | -6
CC(=O)Nc1cc(N)nnc1Cl
  · | 104 | 107 | 3
CCOC(=O)c1n[nH]n2c1nc(=S)c1ccccc12
  -6 | 102 | 100 | 1
CC1CC(C)CN(C(=O)CSc2nnc(C(F)(F)F)n2C)C1 (stereo unspecified)
  -11 | 100 | 100 | 4
O=C(CN1C(=O)c2ccccc2S1(=O)=O)N1CCCC1
  · | 105 | 108 | -13
Cc1noc(C)c1COC(=O)/C=C/c1cn(-c2ccccc2)nc1-c1ccc2c(c1)OCCO2
  -4 | 101 | 103 | 33
CC1(c2ccc(Cl)cc2Cl)NC(=O)N(CC#N)C1=O (stereo unspecified)
  -12 | 99 | 104 | -6
O=C(OCCOc1ccc(Br)cc1)c1cnccn1
  -16 | 104 | 110 | -4
CN1C(=O)C(=Cc2ccc(O)cc2)C(=O)N(C)C1=O
  -25 | 104 | 105 | 16
CCCCN1CN(CCc2cccc(Cl)c2)Cn2c1nc1ccccc12
  1 | 102 | 103 | 11
O=C(CCc1nc2sc3c(c2c(=O)[nH]1)CCCC3)N1CCN(Cc2ccc3c(c2)OCO3)CC1
  -19 | 110 | 107 | 14
Cc1noc(-c2ccccc2)c1NC(=O)N1CCN(C(c2ccccc2)c2ccccc2)CC1
  -25 | 106 | 109 | -7
CC(c1ccccc1)n1cncc1C(=O)O (stereo unspecified)
  1 | 101 | 96 | ·
O=C1CN(Cc2ccccc2)c2ccccc2N1
  6 | 100 | 100 | 86

# 17 of these compounds, set out differently:
molecule	MenB inh	Polio RdRp inh	Polio RdRp inh intensity	MbtI inh
Cc1ccc(NCC(F)(F)C(F)F)cc1	11	100	102	8
Cc1cc(N=Cc2c(O)n(-c3ccc4c(c3)OCO4)c(=O)c3ccccc23)ccn1	-32	98	102	-3
Cn1c(N)c(S(=O)(=O)N2CCc3ccccc3C2)c(=O)n(C)c1=O	4	103	104	14
Cc1ccc(CCNC(=O)Cn2c(=O)oc3cc(S(=O)(=O)NC4CCCC4)ccc32)cc1	-14	103	103	-6
CC(=O)Nc1cc(N)nnc1Cl	·	104	107	3
CCOC(=O)c1n[nH]n2c1nc(=S)c1ccccc12	-6	102	100	1
CC1CC(C)CN(C(=O)CSc2nnc(C(F)(F)F)n2C)C1 (stereo unspecified)	-11	100	100	4
O=C(CN1C(=O)c2ccccc2S1(=O)=O)N1CCCC1	·	105	108	-13
Cc1noc(C)c1COC(=O)/C=C/c1cn(-c2ccccc2)nc1-c1ccc2c(c1)OCCO2	-4	101	103	33
CC1(c2ccc(Cl)cc2Cl)NC(=O)N(CC#N)C1=O (stereo unspecified)	-12	99	104	-6
O=C(OCCOc1ccc(Br)cc1)c1cnccn1	-16	104	110	-4
CN1C(=O)C(=Cc2ccc(O)cc2)C(=O)N(C)C1=O	-25	104	105	16
CCCCN1CN(CCc2cccc(Cl)c2)Cn2c1nc1ccccc12	1	102	103	11
O=C(CCc1nc2sc3c(c2c(=O)[nH]1)CCCC3)N1CCN(Cc2ccc3c(c2)OCO3)CC1	-19	110	107	14
Cc1noc(-c2ccccc2)c1NC(=O)N1CCN(C(c2ccccc2)c2ccccc2)CC1	-25	106	109	-7
CC(c1ccccc1)n1cncc1C(=O)O (stereo unspecified)	1	101	96	·
O=C1CN(Cc2ccccc2)c2ccccc2N1	6	100	100	86

# Later entries.
# Fields – MenB inh | Polio RdRp inh | Polio RdRp inh intensity | MbtI inh
O=C(CCN1CCOCC1)N/N=C/c1cccnc1
  -1 | 99 | 100 | 8
C=CCn1c(=S)[nH]c2sc3c(c2c1=O)CCN(C(=O)OCC)C3
  -32 | 100 | 104 | 22
O=C(OCC(=O)N1CCCc2ccccc21)c1n[nH]c2ccccc12
  · | 97 | 95 | 3
O=C(O)CN1C(=O)c2ccc(Br)cc2C1=O
  -3 | 103 | 105 | -4
NCC1CC2CCC1C2 (stereo unspecified)
  -44 | 102 | 106 | -4
O=S(=O)(c1cccc2nonc12)N1CCCN(c2nccc(C(F)(F)F)n2)CC1
  -12 | 104 | 107 | 0
Cc1cccc(CCNC(=O)C2CCCN(c3cnccn3)C2)c1 (stereo unspecified)
  14 | 101 | 102 | -113
CC(CCC(=O)O)C1CCC2C3CCC4C[C@H](O)CCC4(C)C3CC(=O)C12C (stereo partly specified)
  · | 101 | 104 | -5
CC(C)(C)C1CCC(C(=O)OCC(=O)Nc2ccc(C(N)=O)cc2)CC1 (stereo unspecified)
  · | 104 | 99 | 3
Cn1c(C(C#N)C(=O)c2cccs2)nc2ccccc21 (stereo unspecified)
  · | 92 | 98 | 99
COC(=O)c1cc(NS(=O)(=O)Cc2ccccc2)cc(C(=O)OC)c1
  -14 | 112 | 115 | ·
CN(CC(=O)Nc1ccc(C(N)=O)cc1)Cc1c(F)cccc1Cl
  -8 | 107 | 104 | -23
CCC(=O)Nc1ccc(-c2ccc3nncn3n2)cc1
  4 | 100 | 107 | 29
CNC1(C)C2CCC(C2)C1(C)C (stereo unspecified)
  1 | 99 | 100 | 6
CCC1=C/C(=C/N(C)c2ccccc2)C(=O)S1
  -94 | 101 | 107 | 22
Cc1c(/C=N/NC(=O)CCc2ccc(S(=O)(=O)N3CCOCC3)cc2)cc(C#N)n1C
  9 | 109 | 113 | -13
COC(=O)c1ccc(CSc2nnc(-c3c[nH]c4ccccc34)n2C)o1
  -14 | 101 | 97 | 4
CN(CC(=O)Nc1nc2ccccc2s1)S(=O)(=O)c1ccccc1
  -18 | 99 | 104 | -8
CC[C@H]1OC(=O)[C@H](C)[C@@H](O[C@H]2C[C@@](C)(OC)[C@@H](O)[C@H](C)O2)[C@H](C)[C@@H](O[C@H]2O[C@H](C)C[C@H](N(C)C)[C@H]2O)[C@](C)(O)C[C@@H](C)C(=O)[C@H](C)[C@@H](O)[C@]1(C)O
  -7 | 100 | 99 | 2
CCc1ccc2[nH]c(=O)c(CNC3CCCC3)cc2c1
  24 | 102 | 103 | 87
C#CC(C)(C)OC(=O)Nc1ccccc1
  -3 | 101 | 102 | -7
Cc1[nH]n(-c2ccccc2)c(=O)c1/C=N/O
  11 | 102 | 102 | 29
O=C(O)CCC(=O)c1ccc(I)cc1
  · | 101 | 97 | 4
C=CCn1c(Cc2ccc(OC)cc2)nnc1SC(C)C(=O)Nc1nnc(C)s1 (stereo unspecified)
  3 | 102 | 100 | -8
CC1CN(Cc2nc3c([nH]2)c(=O)[nH]c(=O)n3C)CC(C)O1 (stereo unspecified)
  -1 | 100 | 102 | 2
CC(C)(C)NS(=O)(=O)c1ccc(-c2nnc(SCC(=O)c3ccc(F)cc3)o2)cc1
  -40 | 103 | 106 | -6
OC[C@H]1O[C@@H](Oc2ccccc2)[C@H](O)[C@@H](O)[C@@H]1O
  6 | 101 | 101 | -1
CC1[C@H](C)OC(=O)CC(O)CC(O)CC(O)CCC(O)C(O)C[C@]2(O)CC(O)C(C(=O)O)C(CC(OC3O[C@H](C)[C@@H](O)[C@H](N)[C@@H]3O)/C=C/C=C/C=C/C=C/CC/C=C/C=C/[C@H](C)[C@H]1O)O2 (stereo partly specified)
  6 | 99 | 104 | -13
O=C(OCCOc1ccc(Br)cc1)c1ccc(O)cc1
  -22 | 107 | 96 | -10
COC(=O)c1ccoc1-c1sc2nc(C)cc(C)c2c1N
  4 | 99 | 107 | 109
COc1ccc(CN(C)C(=O)COC(=O)c2c(-c3ccccc3Cl)noc2C)cc1
  -1 | 99 | 101 | 0
CN(CC(=O)O)S(=O)(=O)c1ccc2oc3ccccc3c2c1
  6 | 103 | 110 | ·
Cc1cc(C)n(-c2ccc(C(=O)NCCSCc3ccco3)cc2)n1
  -10 | 101 | 106 | 4
Cc1cc(=O)[nH]n(CCO)c1=O
  14 | 104 | 98 | 10
CCS(=O)(=O)c1ccc(C(=O)Nc2nccs2)cc1
  -6 | 100 | 106 | 11
CCOC(=O)c1nc(NCc2ccccc2)c2ccccc2n1
  -6 | 102 | 103 | -202
CCC(=O)N1CCN(c2ccc(NC(=O)c3ccccc3)cc2)CC1
  -13 | 104 | 101 | -3
O=C(Oc1ccc2ccccc2c1C1SCCS1)c1cccs1
  -18 | 101 | 102 | 0
CCOC(=O)C1CCCN(Cc2cccs2)C1 (stereo unspecified)
  5 | 99 | 101 | -10
CC(=O)OC1C(OC(C)=O)N(C)C(=O)N1C (stereo unspecified)
  -4 | 105 | 109 | ·
Cc1ccc(NC(=O)NCc2nc3ccccc3n2C)cc1
  -26 | 105 | 112 | -1
CCN(c1ccc(OC)cc1)S(=O)(=O)c1cc(-c2onc(C)c2C)ccc1OC
  -31 | 103 | 99 | 6
CSc1ccc(S(=O)(=O)N2CCC(C(=O)Nc3ccc4c(c3)OCO4)CC2)cc1
  -79 | 105 | 102 | -4
O=C(Cn1ccccc1=O)Nc1ccc(N2CCOCC2)cc1N1CCOCC1
  -6 | 105 | 97 | -1
CCOC(=O)c1c(/N=C/c2ccc(N(C)C)cc2)sc(C)c1C
  -32 | 108 | 111 | 29
CN(CC(=O)Nc1ccc(N2CCOCC2)cc1)CC(=O)Nc1sc2c(c1C#N)CCCC2
  -4 | 100 | 92 | 6

# Not a retest: 2 of the compounds above.
# Fields – MenB inh | Polio RdRp inh | Polio RdRp inh intensity | MbtI inh
CCN(c1ccc(OC)cc1)S(=O)(=O)c1cc(-c2onc(C)c2C)ccc1OC
  -31 | 103 | 99 | 6
CSc1ccc(S(=O)(=O)N2CCC(C(=O)Nc3ccc4c(c3)OCO4)CC2)cc1
  -79 | 105 | 102 | -4
